Screening data from PubChem BioAssay.
MT1-MMP act inh – blockers of MT1-MMP proenzyme processing, primary screen, HT1080 RFP-PRO-GFP cells, GFP/RFP fluorescence. GFP/RFP ratio fluorescence, overnight; percent of plate control window, DMSO zero. GFP/RFP ratio change, % at 20 µM. 0.061% of 360,000 active;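 active = GFP/RFP ratio change of at least 30% with cell ATP level not reduced by more than half and red fluorescence within 50% of control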; note: strong numbers were not always called active
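Assay system: HT1080 RFP-PRO-GFP cells. Benchmarks: DMSO vehicle wells and RFP-L50D-GFP reporter cell wells. Times: overnight cell settling, then overnight compound exposure, 37 °C, 5% CO2. Compound: 20 µM single dose, 1% DMSO. Read-out basis: GFP/RFP fluorescence ratio.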
eIF4H FP inh – human eIF4H binding inhibitors, primary screen, translation initiation inhibitor project, biochemical, uHTS, fluorescence polarization | Eukaryotic translation initiation factor 4H (Homo sapiens), Q15056 | eIF4H fluorescence polarization binding assay | inhibition, % at 35 µM | 0.94% of 290,000 active;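 active = 50% or more with normal probe brightness, or confirmed in later tests; inconclusive = above 50% with abnormal brightness, or retests that disagree; inactive = below 50% or failed in later tests; about a fifth of its hits are not listed in these tables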;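 note: calls also rest on retests at 20 µM and on dose response follow-up; 0% = protein and probe with vehicle and 100% = probe without protein; strong numbers were not always called active; many hits fall short of the cut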
Rce1 inh – yeast Rce1p protease inhibitors, primary screen, biochemical, fluorescence, cell-free homogeneous. yeast membranes, quenched prenylated peptide cleavage fluorescence. AID 2563, 2010. calls only. CAAX prenyl protease 2 (Saccharomyces cerevisiae (strain ATCC 204508 / S288c)), Q03530. 0.27% of 290,000 active;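 active = fall in fluorescence gain of 50% or more versus controls, with final raw signal at or below 3038400; inconclusive = same 50% fall but final raw signal above 3038400; inactive = fall in fluorescence gain under 50%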;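 note: plate controls were neutral control wells for no effect and wells lacking membranes for full effect; tested at 10 µM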
Target sequence (Q03530 whole entry, looked up): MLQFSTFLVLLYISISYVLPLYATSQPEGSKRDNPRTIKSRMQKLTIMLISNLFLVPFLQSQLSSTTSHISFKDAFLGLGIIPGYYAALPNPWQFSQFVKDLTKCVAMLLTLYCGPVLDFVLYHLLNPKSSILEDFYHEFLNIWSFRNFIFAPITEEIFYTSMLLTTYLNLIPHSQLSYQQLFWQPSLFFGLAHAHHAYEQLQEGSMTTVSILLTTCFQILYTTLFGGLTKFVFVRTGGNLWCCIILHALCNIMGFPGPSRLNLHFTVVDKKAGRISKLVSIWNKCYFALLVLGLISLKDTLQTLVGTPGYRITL
CSC inhib – cancer stem cell viability inhibitors, primary screen, luminescence | AID 2717, 2010 | cancer stem cell-like cells viability | 1.1% of 300,000 active | inhibition, % at 7.5 µM;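 active = mean at 75% or more and at least half the replicates too; inconclusive = mean and replicates disagree; tested in HMLE shEcad cells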;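 note: 0% = median of negative and 100% = median of positive control wells; the first replicate is given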
Env fusion inh – inhibitors of HIV-1 Env-driven cell-cell fusion, primary screen, HeLa-JRFL effector, CEM21 target cells, luciferase; inhibition, % at 12.3 µM; 1.1% of 360,000 active; AID 651610, 2012;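 active = mean replicate inhibition score of at least 50 and every replicate individually at or above 50; inconclusive = only one of the two criteria met; inactive = mean below 50 and not all replicates reaching 50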;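 note: 0% = plate neutral controls and 100% = maraviroc near 300 nM; one replicate is shown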
PABP FP inh – PABP poly(A) RNA binding inhibitors, primary screen, biochemical, fluorescence polarization, uHTS; 1% of 290,000 active; Polyadenylate-binding protein 1 (Homo sapiens), P11940; inhibition, % at 35 µM; AID 2014, 2009;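 active = 50% or more with normal probe brightness, or confirmed in later tests; inconclusive = above 50% with abnormal brightness, or retests that disagree; inactive = below 50% or failed in later tests; about a fifth of its hits are not listed in these tables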;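 note: calls also rest on retests at 20 µM and on dose response follow-up; controls were probe without protein and protein plus probe with vehicle; some compounds called inactive have numbers as strong as hits; many hits fall short of the cut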
Yeast UUG start – modulators of yeast start codon fidelity, primary screen, whole organism, S. cerevisiae, single point, plate reader; S. cerevisiae UUG-firefly luciferase reporter, luminescence/redox ratio; activity score, % at 18.7 µM; 0.13% of 350,000 active;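 active = replicate mean at a twofold rise or more, about +100% in these data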;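 note: firefly luciferase made from a UUG start codon reports start codon fidelity; reporter light over untreated wells divided by growth signal over untreated wells; some hits fall short of that in this replicate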
eIF4H FP inh retest – also measured in eIF4H FP inh; calls as there; inhibition, %; compound at 20 µM; confirmation average;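 mean of two retest wells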
PABP FP inh retest – recorded beside PABP FP inh, whose call it bears; inhibition, %; compound at 20 µM; confirmation repeats;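 mean of two retest wells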
MT1-MMP act inh RFP – recorded beside MT1-MMP act inh, whose call it bears; RFP signal change, %; measured here: RFP expression control read;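 0 = vehicle wells; hits needed this value within 50% of zero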
An asterisk follows results filed as active; i = inactive; ? = inconclusive; nt = no result given.

SMILES	MT1-MMP act inh	MT1-MMP act inh RFP	eIF4H FP inh	Rce1 inh	CSC inhib	Env fusion inh	PABP FP inh	Yeast UUG start	others
Cc1cc(C)nc(SCC(=O)NC2=NC(=O)C(C)S2)n1 (stereo not drawn)	nt	nt	0.7	i	9.4	nt	-5.4	nt
O=[N+]([O-])/C(C=Nc1ccccc1O)=C\Nc1ccccc1O	13.0	-3.0	82.1	i	nt	28.8	114.4	-22.3	eIF4H FP inh retest=1.1;PABP FP inh retest=16.7
O=C(Cc1cccs1)NCCc1cn2ccccc2n1	4.2	8.5	2.0	i	-15.3	2.2	-4.1	-3.3
Cc1cccc(/C(N)=N/OC(=O)CCCN2C(=O)c3ccccc3C2=O)c1	-3.3	2.8	1.4	i	-12.0	nt	-6.3	-9.4
CCCc1cc(=O)n2[nH]c(C)c(-c3ccc(OC)cc3)c2n1	0.9	-0.2	0.0	i	-2.5	1.9	7.0	-21.2
NC(=O)COC(=O)c1cc(=O)[nH]c2ccccc12	-5.2	-2.6	-2.1	i	-2.8	-1.1	1.8	-1.2
CCOC(=O)C1CCN(c2cc(=O)n(-c3ccccc3Cl)c(=O)[nH]2)CC1	4.1	4.6	-5.0	i	-6.4	nt	2.7	-0.8
CC(Sc1nc2ccccc2[nH]1)C(=O)NC1CCCCC1C (stereo not drawn)	-4.9	-2.2	-5.7	i	12.1	20.4	-6.3	0.2
CC(C)CN(C(=O)COC(=O)CNC(=O)c1ccc(Cl)cc1)C1CCS(=O)(=O)C1 (stereo not drawn)	-0.6	0.0	-8.6	i	-3.0	-9.5	-2.9	nt
COC(=O)Cn1ncc(N2CC(C)OC(C)C2)c(Cl)c1=O (stereo not drawn)	5.7	7.1	-8.5	i	10.9	-87.3	11.1	-15.9
CC(=O)c1cc(C(=O)N2CCc3c([nH]c4ccccc34)C2CC(C)C)[nH]n1 (stereo not drawn)	-2.4	1.5	-7.0	i	-4.9	-9.7	-3.8	nt
CC(C)NC(=O)CCN1C(=O)c2ccccc2Sc2ncccc21	-0.1	0.1	0.1	i	1.0	9.8	3.3	-19.3
Cc1cc(NC(=O)CSc2nc(-c3cccnc3)ccc2C#N)no1	3.0	4.3	-9.9	i	-15.9	nt	-6.0	-9.7
Cc1cccc(C(C(=O)NC2CCCCC2)N(C(=O)c2csnn2)C2CC2)c1 (stereo not drawn)	-2.9	0.4	-3.3	i	nt	-2.6	-0.8	-14.5
CCOc1ccc(NC(=O)c2cccc3c2C(=O)N(CCOC)C3)cc1	5.8	2.0	-0.8	i	-7.1	-54.8	2.6	-12.0
O=C(/C=C/c1ccco1)N(Cc1cccc(Cl)c1)C1CCS(=O)(=O)C1 (stereo not drawn)	-4.1	-0.9	14.6	i	-8.7	9.0	2.3	nt
O=C(O)c1cnn2c(-c3ccc(F)cc3)ccnc12	2.6	4.5	-3.2	i	-7.4	-9.4	-7.6	nt
CCOCCCNCc1ccc(Cl)cc1	4.3	6.9	-4.0	i	-14.5	-7.9	5.9	-0.6
O=C(NCc1ccc2c(c1)OCO2)c1cnc2n(c1=O)CCS2	2.2	1.1	3.8	i	0.3	-2.6	-1.2	-0.2
Cc1ccc(NC(=O)N2CCC(C(=O)Nc3ccc(C)cc3C)CC2)cc1	1.5	0.0	6.4	i	-6.3	23.9	-2.8	nt
CN(C)CCCN(C(=O)c1ccc(S(=O)(=O)N2CCOCC2)cc1)c1nc2ccc(F)cc2s1	1.7	1.2	-6.1	i	1.2	-18.8	4.8	-2.8
CCn1c(Cc2ccccc2)nnc1SCC(=O)NC(C)(C)C	1.1	6.5	3.2	i	nt	nt	-2.0	nt
CCCc1ccc(-c2ccc(-c3noc(-c4ccncc4)n3)cc2)nc1	-0.2	-25.0	0.0	i	39.6	-4.8	-1.2	-9.2
CSCCNC(=O)C1(C)CCN1C(=O)c1sccc1C (stereo not drawn)	-1.4	4.5	nt	nt	nt	4.6	nt	-19.0
COc1ccc(CNCCCC(=O)Nc2c(Cl)ccc(C)c2Cl)cc1OC	1.9	2.7	11.5	nt	-5.9	4.0	6.8	-15.4
Cc1cccc(C(=O)NCCCNC(=O)c2ccccn2)c1	-0.9	2.3	-2.2	i	nt	-5.5	-0.8	-12.8
O=C(Cn1cc(COc2ccc(Cl)c(Cl)c2)nn1)NS(=O)(=O)c1ccccc1OC(F)(F)F	-0.4	6.1	nt	nt	nt	-11.0	nt	-27.9
O=C(Nc1cccnc1)c1ccccc1-c1nc(-c2ccccc2F)no1	2.0	-2.0	0.4	i	3.3	nt	-6.1	-1.0
COc1ccc(N(CCC(=O)NCCc2ccccc2)S(=O)(=O)c2ccc(C)cc2C)cc1	-1.9	-4.0	nt	nt	0.4	nt	nt	-5.5
CCN(C(=O)COC(=O)c1cc(S(=O)(=O)N2CCOCC2)ccc1F)C1CCS(=O)(=O)C1 (stereo not drawn)	5.3	3.1	nt	i	nt	-16.7	nt	nt
COc1ccc(C(=O)N2C=Cc3ccccc3C2C#N)cc1 (stereo not drawn)	-2.5	-2.2	nt	nt	nt	-8.6	nt	-10.9
Cn1c(C2CCCN2C(=O)OC(C)(C)C)n[nH]c1=S (stereo not drawn)	1.7	0.1	-4.1	i	-7.5	-12.6	-6.1	-9.0
CCNC(=O)CN1C(=O)NC2(CCOc3ccccc32)C1=O (stereo not drawn)	0.6	4.8	-9.3	i	nt	8.7	6.8	-6.9
Cc1ccccc1C(=O)Nc1cc(S(=O)(=O)N2CCCCC2)ccc1N1CCN(C)CC1	-0.2	2.1	-13.9	i	-21.0	-3.5	3.8	nt
Cc1c(CC(=O)NCCCC(=O)O)c(=O)oc2c(C)c3oc4c(c3cc12)CCCC4	-1.0	-2.8	-6.4	i	-7.1	13.6	1.5	-7.5
CCOc1ccc(C(=O)NNC(=O)C2CC(=O)N(c3ccc(C)cc3)C2)cc1 (stereo not drawn)	-2.6	2.8	nt	i	-1.4	-4.4	nt	-9.1
O=C(Nc1nc2ccccc2[nH]1)Nc1ccccc1F	-9.5	2.1	0.5	i	5.2	-100.5	-1.9	-29.7
CC(=O)Nc1ccc(N2CCOCC2)c(S(=O)(=O)Nc2ccccc2Cl)c1	-1.3	0.5	nt	nt	nt	3.9	nt	-5.8
COc1cc(COc2ccc3c(C)c(Cc4ccccc4)c(=O)oc3c2)cc(OC)c1OC	-4.9	-12.5	-1.0	i	-3.1	nt	-6.5	-19.9
CSc1ccccc1NC(=O)CN(C)CC(=O)Nc1c(F)cccc1F	6.4	5.4	7.8	i	-25.6	1.6	-1.0	-17.5
Cc1ccc(SCC(=O)NNC(=O)CCS(=O)(=O)c2ccccc2)cc1	-0.4	2.4	nt	nt	3.1	6.9	nt	-13.2
COc1ccc(NC(=O)NN2CCOCC2)cc1OC	5.2	2.7	5.5	i	-3.3	-4.0	4.0	-15.1
COc1cc(OC)cc(C(=O)Nc2ncn[nH]2)c1	3.0	4.9	nt	nt	-2.7	-9.2	nt	-20.8
CCCCCCCCCCCCCCCC[n+]1ccc(C(N)=O)cc1	1.5	-22.0	-9.0	nt	nt	?	2.7	-19.2
CC(O)[C@H]1CC[C@H]2[C@@H]3CC[C@H]4C[C@H](O)CC[C@]4(C)[C@H]3[C@H](O)C[C@]12C (stereo partly drawn)	-1.1	4.5	nt	nt	7.6	-1.7	nt	-4.5
NS(=O)(=O)c1cccn1-c1ncc(C(F)(F)F)cc1Cl	2.6	8.9	8.8	i	-3.8	-8.9	19.2	-1.1
CC(C)C[C@H](NC(=O)c1[nH]cnc1C(=O)Nc1ccc(Cl)cc1)C(=O)OC(C)(C)C	-15.8	-17.6	9.9	i	nt	-2.0	8.5	-18.9
CC(=O)Nc1ccc(C(=O)CS(=O)(=O)c2ccc(C)cc2)cc1	-8.4	-0.9	-3.8	i	16.9	nt	9.9	-6.1
COc1ccc(OC)c(NC(=O)CCN2CC(C)OC(C)C2)c1 (stereo not drawn)	3.9	-1.1	-4.8	i	-13.7	9.5	6.3	-7.2
C=CCSC1=Nc2cc(OC)c(OC)cc2C2=NC(=O)CN12	0.0	0.2	16.5	nt	nt	-15.8	-2.2	-7.3
COc1cc(C(=O)Nc2ccc(Cl)c([N+](=O)[O-])c2)cc(OC)c1OC	19.3	-11.0	0.6	i	-6.9	-15.5	8.2	nt
O=C(Cc1ccccc1)NC1CCN(C(=O)c2ccc([N+](=O)[O-])cc2)CC1	-1.1	-2.6	-1.3	i	-11.4	5.7	9.7	-10.2
CCN1CCN(CC(=O)N2N=C(c3cccs3)CC2c2ccc(OC)c(OC)c2)C(=O)C1=O (stereo not drawn)	3.7	0.7	-3.1	i	-5.4	-5.6	12.5	-0.9
CCOC(=O)N1C/C(=C\c2ccccc2)C(=O)/C(=C/c2ccccc2)C1	-37.2	-29.0	15.7	i	nt	-105.1	2.5	-1.9
COc1ccccc1CNC(=O)C1COc2ccccc2O1 (stereo not drawn)	-0.9	1.4	-11.9	i	15.5	-55.7	-1.4	-1.8
COc1ccccc1N1CCN(c2ccc(S(=O)(=O)N3CCN(C)CC3)cn2)CC1	-2.3	-3.7	nt	nt	10.3	-4.8	nt	-6.8
CCC(=O)N1C(=O)CCN(C(C)=O)c2ccccc21	2.6	5.6	7.9	i	5.3	nt	5.0	0.7
CN1CCCN(Cc2ccccc2Br)CC1	-3.7	-3.4	-1.7	nt	23.1	-5.7	2.0	-17.8
COc1ccccc1N1CCN(C(=S)NC(=O)c2ccc([N+](=O)[O-])cc2)CC1	9.8	4.3	nt	nt	nt	7.9	nt	-9.3
Cc1ccnc(NC(=O)CCC(=O)N(CC(=O)NC(C)(C)C)c2ccc3c(c2)OCO3)c1	-2.2	-1.4	2.0	i	-5.2	8.4	21.2	-7.3
Going on with the list:
SMILES	MT1-MMP act inh	MT1-MMP act inh RFP	eIF4H FP inh	Rce1 inh	CSC inhib	Env fusion inh	PABP FP inh	Yeast UUG start	others
Cc1cccc(OCC(=O)N(C)CC(=O)Nc2cccc(F)c2)c1C	-0.4	-3.0	nt	nt	-3.6	nt	nt	-0.4
CC(C)C(NC(=O)c1ccccc1)C(=O)NCc1ccccn1 (stereo not drawn)	3.3	5.5	-3.0	i	4.4	-5.9	0.9	0.3
CC(C)N(C(=O)COC(=O)c1cccnc1Cl)c1ccccc1	-4.5	-0.2	nt	nt	-12.7	nt	nt	10.3
CCN1C(=O)[C@@H]2[C@@H](c3ccc(-c4ccc(OC)cc4)cc3)N3CCC[C@@]3(C(=O)OC)[C@@H]2C1=O	2.6	-1.7	nt	i	21.5	nt	nt	-2.6
O=C/C(=C\Nc1ccc(Cl)cn1)c1nc2ccccc2o1	-36.4	-2.7	0.4	i	-1.3	nt	-8.3	-19.4
CC1CCCc2sc3nc(NCc4ccco4)n4ncnc4c3c21 (stereo not drawn)	4.3	-0.1	7.2	i	15.5	nt	-17.7	-13.6
